Rango-impB inh – inhibitors of Rango-importin beta complex formation; Q14974; Rango CFP/YFP FRET sensor + importin beta, 45 min; Potency, µM (top dose mostly 92.2 µM), for the others: at the top dose inhibition of complex formation; 340,000 tested, 0.031% active; active = rising FRET ratio curve, often small or poorly fitted; inconclusive = mostly compound fluorescence or quenching in the first reads; inactive = flat curves in all reads;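 note: potency is the fitted concentration of half-maximal effect; 0% = DMSO wells and 100% = buffer wells lacking importin beta; nearly all actives have a fitted effect of over 15% in size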
Target sequence (Q14974 whole entry, looked up): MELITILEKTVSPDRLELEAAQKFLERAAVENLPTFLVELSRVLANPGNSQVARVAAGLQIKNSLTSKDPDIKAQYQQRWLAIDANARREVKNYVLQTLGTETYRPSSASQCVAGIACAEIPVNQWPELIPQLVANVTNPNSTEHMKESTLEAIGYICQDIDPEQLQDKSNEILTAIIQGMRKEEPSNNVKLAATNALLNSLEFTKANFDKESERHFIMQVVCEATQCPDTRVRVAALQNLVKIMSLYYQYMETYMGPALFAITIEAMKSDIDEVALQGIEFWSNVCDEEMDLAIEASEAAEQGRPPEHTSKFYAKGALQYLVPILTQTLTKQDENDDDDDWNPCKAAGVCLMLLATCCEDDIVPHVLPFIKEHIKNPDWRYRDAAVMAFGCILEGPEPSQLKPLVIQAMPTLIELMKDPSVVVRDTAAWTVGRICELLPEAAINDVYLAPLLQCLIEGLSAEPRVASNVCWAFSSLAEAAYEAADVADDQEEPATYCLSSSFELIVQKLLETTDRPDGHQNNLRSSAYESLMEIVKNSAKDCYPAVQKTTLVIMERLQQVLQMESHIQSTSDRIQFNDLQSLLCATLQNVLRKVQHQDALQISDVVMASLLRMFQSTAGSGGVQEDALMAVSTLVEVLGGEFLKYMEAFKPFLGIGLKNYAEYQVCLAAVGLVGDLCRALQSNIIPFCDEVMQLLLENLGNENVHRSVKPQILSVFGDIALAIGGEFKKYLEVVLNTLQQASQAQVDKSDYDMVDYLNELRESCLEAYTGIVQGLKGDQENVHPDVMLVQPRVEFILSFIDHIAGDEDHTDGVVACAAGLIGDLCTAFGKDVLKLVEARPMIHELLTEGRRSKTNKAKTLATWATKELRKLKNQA
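FRET biosensor (snurportin 1 IBB flanked by EYFP and cerulean), 50 nM, with compound 5 min, then 0.125 microM importin beta in PBS, 1 mM DTT, 0.02% Tween-20, 0.1% BSA. CFP/YFP ratio read after 45 min at room temperature; pre-read flags interference.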
miR-21 reporter – miR-21 reporter, rising signal. HeLa miR-21 FLuc reporter, luciferase, 48 h. Potency, µM (highest dose often 38.3 µM), without a hit: at the highest dose reporter change, positive = more light. 340,000 tested, under 10 active; active = well fitted rising curve with a large enough effect; inconclusive = small, poorly fitted or top-dose-only effect; inactive = no such curve, though single readings can be large or run the other way;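 note: % of control where 0% means no effect; miR-21 action dims this reporter so a rising signal means less miR-21 action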
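HeLa cells endogenously expressing miR-21, stably carrying CMV-driven firefly luciferase with a downstream miR-21 binding site, 2000 cells/well. Titrations up to approximately 40 uM, 48 hours; luciferase luminescence read.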
Rango release inh – prevents RanGTP from dissociating the Rango-importin beta complex; 340,000 tested, 0.071% active; Biochemical FRET Rango-importin beta, RanGTP-induced dissociation; Potency, µM (series often up to 46.1 µM), for the others: at the top dose activity change, negative = inhibition; O95149+P62826; active means falling FRET ratio curve, often poorly fitted, with flat reads before Ran was added; inconclusive means other falling curves, or compound fluorescence or quenching; inactive means flat or rising ratio curve;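 note: potency is the fitted concentration of half-maximal effect; % of control where 0% means no effect; nearly all actives have a fitted effect of over 45% in size; -100% = wells without RanGTP and RCC1; the record marks most hits as doubtful in a second field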
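FRET read at 45 min, room temperature: inhibitors block the CFP/YFP signal rise when RanGTP (0.6 uM Ran, 2 mM GTP, 0.2 uM RCC1) frees Rango (0.1 uM) from importin beta (0.25 uM). Pre-read after 5 min compound exposure flags interference.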
GLA inh pH 4.5 – inhibitors of human alpha-galactosidase A at pH 4.5. activity change, negative = inhibition, % at 105 µM. 230,000 tested, under 10 active. purified enzyme, 4-MU-alpha-Gal fluorescence, pH 4.5; inconclusive = small, poorly fitted or top-dose-only inhibition, or a rising curve; inactive = flat fitted curve, though single readings scatter; no compound was filed as active;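 note: 0% = full activity with enzyme and -100% = basal without enzyme; dose as in the result columns while the protocol names 77 µM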
Numbers without * were called inactive; ? = inconclusive; nt = not tested or not shown; & = joins results of further samples; [ ] = remark or other dose. An excerpt; count on the stated rates, not on these rows.

SMILES	Rango-impB inh	miR-21 reporter	Rango release inh	GLA inh pH 4.5
O=C(NCc1ccco1)C(c1ccco1)N(C(=O)Cn1nnc2ccccc21)c1ccc2c(c1)CCC2 (stereo not given)	-1.2%	nt	0.0%	nt
CC(NC(=O)C1CCC1)c1ccccc1 (stereo not given)	0.6%	0.9%	-8.0%	-15.7
CCCCn1c(N)c(N(CCOC)C(=O)c2cccc(OCc3ccccc3)c2)c(=O)[nH]c1=O	-1.3%	nt	16.7%	nt
COCCN(C(=O)CN1CCc2ccccc2C1)c1c(N)n(Cc2ccccc2)c(=O)[nH]c1=O	0.6%	1.7%	-12.7%	-12.5
Cc1ccc(C(=O)NNC(=O)/C=C\C(=O)O)cc1	1.4%	-39.7%	4.3%	1.8
COc1cc(CNCc2ccccn2)ccc1OCC(N)=O	?	-10.3%	-0.2%	3.7
Cc1cc(C)c(S(=O)(=O)N2CCOC2CNC(=O)C(=O)NCCCN2CCOCC2)c(C)c1 (stereo not given)	-4.6%	-34.1%	3.5%	nt
CCOC(=O)c1sc(Nc2ccccc2Cl)nc1C	-1.3%	-76.9%	2.7%	-6.4
Cc1cn(CCOc2ccc(Cl)cc2)c(=O)[nH]c1=O	0.8%	-5.2%	8.4%	nt
CCc1ccc(CN2C(=O)c3ccccc3C2C(=O)NCC2CCCO2)cc1 (stereo not given)	0.8%	-1.4%	-6.5%	2.7[21.1 µM]
O=C(O)/C(=C\c1ccc(-c2ccc(F)cc2)o1)c1ccccc1	-0.5%	-20.3%	-6.4%	-10.1
O=C(c1oc2ccccc2c1CSCc1ccccc1)N1CCN(c2ncccn2)CC1	?	17.8%	-20.8%	4.1
O=C(NCCCN1CCCC1=O)c1ccc(NS(=O)(=O)c2cccc([N+](=O)[O-])c2)cc1	3.6%	nt	-18.3%	nt
CCOC(=O)/C=C/C(=O)OCC(=O)Nc1ccc(C)cc1	0.2%	0.9%	0.3%	-1.3
O=C(Cn1c(SCC(=O)N2CCc3ccccc3C2)nc2ccccc21)NC1CCCC1	-0.7%	-1.7%	-6.9%	-27.0
COc1ccc(N(C(=O)c2snc(C(N)=O)c2N)C(C(=O)NCc2ccc(F)cc2)c2ccc(O)cc2)cc1 (stereo not given)	-2.0%	22.8%	9.4%	nt
CCOC(=O)/C=C/C(=O)Nc1ccc(S(=O)(=O)N2CCCCCC2)cc1	0.2%	0.6%	-18.1%	-3.1
CN(C(=O)c1cccc(NC(=O)c2ccco2)c1)c1ccccc1	-1.1%	-1.4%	-3.1%	nt
COCCN(C(=O)CNC(=O)c1ccco1)C(C(=O)NC1CCCC1)c1ccc(OC)c(OC)c1 (stereo not given)	-1.1%	-5.5%	18.7%	nt
CC1CCN(c2ccc3nnc(CCC(=O)NCC(C)c4ccccc4)n3n2)CC1 (stereo not given)	-1.4%	1.4%	1.5%	nt
Cc1cccc(C)c1OCC(=O)Nc1cccc(-c2nnc(-c3ccccc3)o2)c1	-0.2%	-12.6%	0.6%	-2.0
C=CCn1c(SCC(=O)NCCCO)nc2sc3c(c2c1=O)CCC3	-0.5%	4.4%	-15.7%	nt
OCCC1CCCCN1CC(O)COCc1ccc(Cl)cc1 (stereo not given)	2.6%	-0.6%	0.4%	nt
CC1C(=O)C(C)(C)C(=O)OC1c1ccc([N+](=O)[O-])cc1 (stereo not given)	-0.8%	-1.1%	35.6%	nt
CCn1c2c(c3cc(Cl)ccc31)CCCC2=O	-0.7%	-6.7%	-2.1%	-4.2
C[C@@H]1CN([C@H](C)CO)C(=O)Cc2cc(NC(=O)CCC(F)(F)F)ccc2O[C@@H]1CN(C)C(=O)Nc1ccccc1	-2.4%	nt	8.3%	nt
CC1CCCC(NC(=O)c2cccs2)C1C (stereo not given)	2.4%	nt	-6.1%	nt
CC(=O)c1ccc(-c2nnc(CCC(=O)N3CCCC(C(=O)CC(C)C)C3)o2)s1 (stereo not given)	-3.2%	21.1%	-14.6%	nt
CCOC(=O)c1sc2ncn(/N=C/c3cccnc3)c(=O)c2c1C	4.6%	-5.8%	5.0%	4.3
COc1cccc(C2=NO[C@@H]3C(=O)N(Cc4ccccc4)C(=O)[C@H]23)c1OC	-2.3%	-2.0%	2.4%	-10.8
Cc1cc(N2CCN(c3ccccc3)CC2)nc(NCc2ccccc2)n1	-0.4%	-1.9%	2.4%	-0.8
c1ccc(-c2ccc(OCCCn3cncn3)cc2)cc1	-2.1%	-29.3%	14.8%	-19.2
Cc1ccc(S(=O)(=O)NCc2ccccc2)cc1C(=O)NC(C)c1ccc(S(N)(=O)=O)cc1 (stereo not given)	-1.3%	nt	8.4%	nt
CCN1CCN(CCNC(=O)c2ccc(/C=C3/Sc4ccccc4N(Cc4ccccc4C)C3=O)cc2)CC1	?	?	?	-6.3[21.1 µM]
COCCCN1C(=O)C(=O)/C(=C(/O)c2ccc(C)cc2)C1/C=C/c1ccccc1 (stereo not given)	0.4%	-0.9%	15.2%	-2.9
COc1ccc(NC(=O)CN(C)C(=O)CSCc2ccc(C)cc2)cc1	3.5%	nt	-0.6%	nt
COc1ccc(S(=O)(=O)NCC2CCCN(C(=O)c3ccco3)C2)cc1 (stereo not given)	-0.7%	-2.1%	-7.9%	2.5
OC(C#CCN1CCCCC1)c1ccccc1 (stereo not given)	4.4%	-5.0%	11.1%	5.5
O=C(CCSc1nc(-c2ccco2)cc(C(F)(F)F)n1)Nc1ccc2c(c1)OCO2	-2.4%	-2.2%	-15.3%	-5.7
CN(C)c1ccc(C(=O)c2ccc(N(C)C)c3ccccc23)cc1	?	-14.4%	-12.9%	-9.7
COc1ccccc1C(=O)OCc1nc(N)nc(Nc2ccccc2C)n1	?	-71.3%	17.1%	7.8
CC1CC(C)CN(C(=O)CNC(=O)c2ccc3ccccc3c2)C1 (stereo not given)	5.9%	-12.4%	31.5%	nt
CC1=CC(C)(C)NC(=S)N1c1cc(C)cc(C)c1	3.4%	13.4%	15.3%	-12.3
FC(F)(F)c1ccc2c(c1)NCC1CCCN21 (stereo not given)	-0.6%	-10.6%	-16.4%	4.7
CCN(CC)S(=O)(=O)c1ccc(/C=C/C(=O)Nc2ccc(N3CCOCC3)cc2)cc1	0.1%	?	20.2%	1.0

A second format for some results above.
Sequence of screens – Rango-impB inh | miR-21 reporter | Rango release inh | GLA inh pH 4.5
- CCN1CCN(CCNC(=O)c2ccc(/C=C3/Sc4ccccc4N(Cc4ccccc4C)C3=O)cc2)CC1
    ? | ? | ? | -6.3[21.1 µM]
- COCCCN1C(=O)C(=O)/C(=C(/O)c2ccc(C)cc2)C1/C=C/c1ccccc1 (stereo not given)
    0.4% | -0.9% | 15.2% | -2.9

Next records
SMILES	Rango-impB inh	miR-21 reporter	Rango release inh	GLA inh pH 4.5
Oc1sc(C=Nc2ccc(F)cc2)c2ccccc12	?	-50.4%	?	-1.8
COc1ccc2c(c1)C1NC(=S)NC(C)(O2)C1C(=O)Nc1ccc(C)cc1C (stereo not given)	1.0%	-0.2%	-12.8%	0.4
Brc1ccc(/C=N/Nc2nncc(-c3ccccc3)n2)o1	nt	1.7%	nt	1.9
Cc1cccc(C)c1NC(=O)C1(N(Cc2ccco2)C(=O)CC2NC(=O)NC2=O)CCCC1 (stereo not given)	4.3%	-4.5%	6.5%	-1.4
COCCSc1nnc(NC(=O)C2CC(=O)N(c3ccc(Cl)cc3)C2)s1 (stereo not given)	6.4%	-0.4%	13.7%	-0.4
CCNS(=O)(=O)c1ccc(CCC(=O)N2CCc3ccccc3C2)cc1	?	2.5%	-6.7%	nt
C=CCn1c(=S)[nH]c2cc(-c3ccccc3)sc2c1=O	4.5%	-25.4%	13.9%	nt
COc1ccc(S(=O)(=O)N2CCOCC2)cc1NC(=O)CCNC(=O)c1ccc([N+](=O)[O-])cc1	-0.4%	nt	22.0%	nt
COc1ccc(C(=O)/C=C/NCc2ccc(C)cc2)cc1	?	nt	-25.0%	nt
COc1ccc(N=C2SC(CC(=O)Nc3cccc(Cl)c3)C(=O)N2Cc2ccco2)cc1 (stereo not given)	-3.1%	17.8%	-6.2%	-9.8
O=C(CN1CCN(Cc2ccccc2)CC1)N/N=C/c1c[nH]c2ccccc12	-0.7%	-4.2%	-22.0%	-9.3
Cc1ccc(-c2noc(CCC(=O)NCCCN3CCN(c4ccc(F)cc4)CC3)n2)cc1	7.2%	-1.9%	2.3%	-8.4
O=C1CC(NNc2nc3ccccc3s2)C(=O)N1c1ccccc1 (stereo not given)	0.2%	0.7%	14.7%	-12.8
Cc1ccc(S(=O)(=O)N(C)c2ccc(OC(=O)COc3ccccc3)cc2)cc1	0.9%	nt	-3.6%	nt
CC(=O)NC(=S)NNC(=O)COc1ccc([N+](=O)[O-])cc1	-1.4%	-0.3%	-8.2%	-4.0
O=C(O)c1ccc(-n2c(-c3ccc(Br)cc3)n[nH]c2=S)cc1	1.2%	-6.2%	2.4%	7.1
c1cn(-c2ncnc3sc4c(c23)CCCC4)cn1	0.3%	6.6%	0.4%	1.1
Cc1cccc(CSCc2ccc(C(=O)NCC3CCCO3)o2)c1 (stereo not given)	-4.0%	-3.4%	-1.9%	5.1
COc1ccc(NC(=S)Nc2ccc(S(N)(=O)=O)cc2)c(C)c1	4.7%	-3.2%	34.2%	1.0
COc1ccc2c(c1)c(C(=O)N/N=C/c1cccs1)c(C)n2C	-3.5%	-0.6%	1.4%	nt
O=C(/C=C\Nc1ccc2c(c1)OCO2)c1ccc2c(c1)OCO2	?	-67.2%	?	5.4
NC(=O)CC[C@@H]1NC(=O)[C@H](CO)NC(=O)c2cc([N+](=O)[O-])cc(I)c2OCC[C@@H](C(N)=O)NC1=O	-2.3%	-3.1%	29.8%	-5.0
CCN(CC)CC#CCOC(=O)C(O)(c1ccccc1)C1CCCCC1 (stereo not given)	0.1%	19.4%	2.5%	-8.9&-10.4
COc1ccc(C(=O)NC(=S)Nc2ccc3[nH]c(=O)[nH]c3c2)c(OC)c1	0.8%	-33.5%	1.6%	nt
COc1ccc(Cn2c(CCC(=O)Nc3ccc(CC#N)cc3)nc3cccnc32)cc1	0.2%	-7.4%	-6.2%	2.2
O=C(c1cccc2nccnc12)N1CCCC(Nc2ccc(F)c(F)c2)C1 (stereo not given)	-2.5%	-8.3%	-7.5%	nt
C=CCSc1nn2c(=O)c3ccccc3nc2s1	0.8%	-33.8%	-9.8%	-21.5
COc1ccc(-n2c(Cn3c(=O)sc4ccccc43)nnc2SCC(=O)N2CCCCC2)cc1	-1.4%	-0.9%	-18.0%	-3.6
CCOC(=O)c1sc(NC(=O)c2cc3c(s2)CCC(C)C3)nc1C (stereo not given)	?	-34.2%	-4.6%	5.4
COc1nc(OC)nc(N2CCC(C(=O)NC3CC3)CC2)n1	0.2%	0.9%	0.0%	3.7
O=C(CN1CCCCC1)N/N=C/c1cccc(C(F)(F)F)c1	0.9%	nt	0.7%	nt
CC1CCCCC1NC(=O)CN1CCC(NC(=O)c2ccc([N+](=O)[O-])cc2)CC1 (stereo not given)	-2.4%	0.2%	0.1%	nt
CCN(CC(=O)Nc1ccccc1C(F)(F)F)C(=O)c1ccc2[nH]c3c(c2c1)CC(C)CC3 (stereo not given)	0.3%	nt	4.3%	nt
COc1cccc(CC2(CO)CCCN(Cc3nc(-c4cccs4)oc3C)C2)c1 (stereo not given)	-4.1%	-7.5%	-8.2%	-8.2
Cc1ccc(C(=O)Nc2ccccc2OC(F)F)cc1	-5.2%	-34.2%	0.0%	1.2
Cc1ccc(C)n1-c1cccc(C(=O)Nc2ccccc2)c1	0.7%	-20.8%	-18.6%	-0.6
COc1ccc(Cl)cc1NC(=O)C1CC(c2c(F)cccc2Cl)=NO1 (stereo not given)	1.3%	6.9%	2.3%	nt
O=C(COc1cccnc1[N+](=O)[O-])Nc1ccc(F)cc1	0.1%	nt	10.9%	nt
CC(C)(C)C(=O)Nc1ccc(C(=O)Nc2cccc(Oc3ccc(C(=O)O)c(C(=O)O)c3)c2)cc1	-1.2%	20.0%	3.5%	nt
CC(C)CC1C(=O)N(Cc2cn(CC3CCCCC3)nn2)CCS(=O)(=O)N1Cc1ccc(-c2cccc(C#N)c2)cc1 (stereo not given)	-2.5%	nt	2.7%	nt
COC(=O)c1cccc(NC(=O)CSc2nc(O)c(-c3ccccc3)c(=O)[nH]2)c1	-3.1%	0.2%	3.7%	6.8

Screens (PubChem)
